Mtb growth = Mycobacterium tuberculosis H37Rv growth inhibition, putative kinase inhibitor library, confirmatory dose response (AID 2842); M. tuberculosis H37Rv growth inhibition; higher % means a stronger effect; some inactives read as strong as hits; inhibition, % at 10 µg/mL; hits with a dose series show IC90 in µg/mL; hit rate 5.2% among 24,000;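 active = confirmed in a dose series; inconclusive = mostly over 85% at the one dose but not retested; inactive = below 85% or not confirmed; about a fifth of its hits are not listed in these tables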;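 also: bacteria incubated one week before Alamar blue readout; 0% = bacteria only wells and 100% = bacteria with high antibiotic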
* = called active by the depositor; u = inconclusive.

#	compound	Mtb growth
1	CC1=C(C(=O)Nc2ccccc2)C(c2cccs2)C(C#N)=C(SCC(=O)Nc2nccs2)N1 (stereo unspecified)	-8%
2	COc1ccc(S(=O)(=O)n2nc(OC(=O)c3cc(OC)c(OC)c(OC)c3)cc2N)cc1	-13%
3	COc1ccc2c(c1)c1nnc(-c3ccc(F)cc3)c-1cn2Cc1ccccc1OC	59%
4	Cc1ccccc1OCC(=O)NC1CC(=O)N(c2ccc(Cl)cc2)C1 (stereo unspecified)	3%
5	Nc1ncnc(Nc2ccccc2Cl)c1[N+](=O)[O-]	2%
6	CCOc1ccc(C(=O)Nc2c(N)nc(SCc3ccc(Br)cc3)[nH]c2=O)cc1	2%
7	O=C(CSc1nc2c(c(=O)n1-c1ccc(Cl)cc1)SCC2)Nc1ccc2c(c1)OCO2	-12%
8	CCOc1ccccc1NC(=O)c1oc2ccccc2c1NC(=O)c1cccc(OC)c1	-10%
9	CCOC(=O)N1CCN(c2ncnc3c2cnn3-c2ccc(C)cc2)CC1	21µg/mL*
10	CCOC(=O)c1cc([N+](=O)[O-])sc1NC(=O)c1cccc(Br)c1	-9%
11	COc1cccc(C(=O)Nc2nc(-c3cccs3)cs2)c1	19µg/mL*
12	CCn1c2ccccc2c2cc(C3C(C#N)=C(N)OC4=C3C(=O)CC(C)(C)C4)ccc21 (stereo unspecified)	1%
13	CCOc1cc(C(=O)NCCc2cc3ccc(C)c(C)c3[nH]c2=O)cc(OCC)c1OCC	-7%
14	CC(C)N1CCc2c(sc(NC(=O)CN3C(=O)CCC3=O)c2C#N)C1	-2%
15	COc1ccc(/C(O)=C2\C(=O)C(=O)N(CCN(C)C)C2c2ccc(OC(C)C)cc2)cc1 (stereo unspecified)	-3%
16	Cc1cc(OC(=O)c2cccc(Br)c2)c([N+](=O)[O-])c(=O)[nH]1	9%
17	OCCN1CCN(C(c2ccccc2)c2sc3ncnn3c2O)CC1 (stereo unspecified)	-3%
18	COc1ccc(Cl)cc1C(=O)Nc1cccc(-c2ccc3nnc(C)n3n2)c1	-15%
19	Cc1cn2c3c(=O)n(Cc4ccc(Br)cc4)c(=O)n(C)c3nc2n1Cc1ccco1	-8%
20	COc1cccc(N2CC(NS(=O)(=O)c3ccccc3F)CC2=O)c1 (stereo unspecified)	10%

7 records drawn at random from the list so far, as already listed:
#	compound	Mtb growth
15	COc1ccc(/C(O)=C2\C(=O)C(=O)N(CCN(C)C)C2c2ccc(OC(C)C)cc2)cc1 (stereo unspecified)	-3%
16	Cc1cc(OC(=O)c2cccc(Br)c2)c([N+](=O)[O-])c(=O)[nH]1	9%
20	COc1cccc(N2CC(NS(=O)(=O)c3ccccc3F)CC2=O)c1 (stereo unspecified)	10%
18	COc1ccc(Cl)cc1C(=O)Nc1cccc(-c2ccc3nnc(C)n3n2)c1	-15%
11	COc1cccc(C(=O)Nc2nc(-c3cccs3)cs2)c1	19µg/mL*
13	CCOc1cc(C(=O)NCCc2cc3ccc(C)c(C)c3[nH]c2=O)cc(OCC)c1OCC	-7%
14	CC(C)N1CCc2c(sc(NC(=O)CN3C(=O)CCC3=O)c2C#N)C1	-2%

Later entries
#	compound	Mtb growth
21	Cc1ccc(S(=O)(=O)c2cnc(SCC(=O)Nc3cc(F)ccc3F)[nH]c2=O)cc1	-16%
22	O=C(CSc1nc2c(c(=O)n1-c1ccc(Cl)cc1)SCC2)Nc1ccc([N+](=O)[O-])cc1	2%
23	NS(=O)(=O)c1ccc2nc(NC(=O)c3ccc(N4C(=O)c5ccccc5C4=O)cc3)sc2c1	-10%
24	O=C(CSc1ccc2nnc(-c3cccnc3)n2n1)Nc1ccccc1	-5%
25	CC(C)NC(=O)CSc1nc(N)c(NC(=O)c2ccccc2F)c(=O)[nH]1	1%
26	CSc1nc2ccc3nc(NC(=O)c4cccc(N5C(=O)CCC5=O)c4)sc3c2s1	-10%
27	CCCNc1nc2c(c(=O)n(C)c(=O)n2C)n1Cc1ccc(Cl)cc1	-1%
28	COc1ccc(NC(=O)c2oc3ccccc3c2NC(=O)Cc2ccc(OC)c(OC)c2)cc1	0%
29	Cc1ccc(-n2nnc3c(=O)n(CC(=O)NCc4ccco4)cnc32)cc1C	0%
30	COc1ccc(C(=O)Nc2sc3c(c2C(N)=O)CCN(Cc2ccccc2)C3)c(OC)c1	-4%
31	CC(C)c1ccc(NC(=O)c2cnc3n(c2=O)CCS3)cc1	7%
32	Cc1ccnc(SCc2cc(=O)c(OC(=O)c3cc4ccccc4oc3=O)co2)n1	0%
33	O=C(CCN1C(=O)c2ccccc2S1(=O)=O)Nc1ccc(F)c([N+](=O)[O-])c1	-4%
34	Cc1ccc2cc(CCNC(=O)C3c4ccccc4Oc4ccccc43)c(=O)[nH]c2c1	1%
35	Cn1cc(C(=O)Nc2ccc(F)cc2F)c2nn(-c3ccccc3)c(=O)c-2c1	7%
36	CCOC(=O)CSc1nnc2[nH]c(=O)c(C)c(C)n12	-7%
37	Cc1cc(NC(=O)Cn2cnc3c(nnn3-c3ccc(F)cc3)c2=O)no1	11%
38	O=C(Nc1nc2c(s1)COc1ccccc1-2)c1cccc(NS(=O)(=O)c2ccc(F)cc2)c1	13µg/mL*
39	O=C(CSc1nc(-c2ccc(F)cc2)nc2c1Cc1ccccc1O2)Nc1ccc(C(=O)O)cc1	-14%
40	O=C(Nc1ccc(F)c(F)c1)c1oc2ccccc2c1NC(=O)C1CCCO1 (stereo unspecified)	-5%
41	O=C(CSc1ccc2nnc(-c3ccc(F)cc3)n2n1)Nc1ccccc1F	2%
42	CCOc1ccc2nc(NC(=O)C(C)N3C(=O)c4ccccc4S3(=O)=O)sc2c1 (stereo unspecified)	-6%
43	Cc1ccc(NC(=O)CCc2nc3ccccc3c(=O)[nH]2)c(C)c1	-5%
44	Cc1ccc(NC(=O)c2oc3ccccc3c2NC(=O)c2ccccc2Br)cc1	4%
45	Cc1cc(NC(=O)CSc2nc3ccccc3o2)no1	-22%
46	COc1ccc2c(c1)c(=O)c(S(=O)(=O)c1ccc(C(C)C)cc1)cn2Cc1ccccc1F	9%
47	O=C(Nc1nc(-c2ccc3ccccc3c2)cs1)c1cccc(Br)c1	-2%
48	O=C(Nc1ccc(F)c(Cl)c1)c1oc2ccccc2c1NC(=O)C1CCCC1	-9%
49	COc1ccc(Nc2nc(Nc3cc(Cl)ccc3C)nc3nccnc23)cc1	27%
50	COc1ccc(-n2c(=O)[nH]c3c(C(N)=O)nc(-c4cccc(C)c4)nc32)c(OC)c1	-5%
51	Cc1ccc(C)c(-c2nnc(NC(=O)c3ccc(C)c(C)c3)o2)c1	50%
52	O=c1[nH]cc(S(=O)(=O)Nc2ccc(Br)cc2)c(=O)[nH]1	-4%
53	NC(=O)c1ccc(NC(=O)CSc2ncnc3c2cnn3-c2cccc(Cl)c2)cc1	0%
54	COCCn1c(SCCc2ccccc2)nc2c1c(=O)[nH]c(=O)n2C	2%
55	COc1ccc(NC(=O)c2oc3ccccc3c2NC(=O)Cc2ccc(F)cc2)cc1OC	-7%
56	CC1(C)CC(=O)C2=C(C1)OC(N)=C(C#N)C2CCc1ccccc1 (stereo unspecified)	1%
57	Cc1cc(=O)n2c3ccccc3n(CC(O)CNc3ccc(Cl)cc3)c2c1C#N (stereo unspecified)	1%
58	CC(C)(C)c1ccc(C(=O)Nc2nnc(-c3ccco3)o2)cc1	1.2µg/mL*
59	CCCC(=O)Nc1sc2c(c1C(N)=O)CC(C)(C)NC2(C)C	7%
60	O=C(Cc1csc(NC(=O)c2ccc3c(c2)OCO3)n1)NCc1cccs1	12%
61	COc1ccc(Cl)c2sc(N(CCCn3ccnc3)C(=O)Cc3ccccc3)nc12	1.6µg/mL*
62	O=C(Nc1ccc(OC(F)(F)F)cc1)c1oc2ccccc2c1NC(=O)C1CCCC1	0%
63	Cc1[nH]c2ccccc2c1SCCNC(=O)c1ccc(S(=O)(=O)N2CCCC2)cc1	50%
64	Cc1ccc(C(=O)c2cn(CC(=O)Nc3ccc(F)cc3)c3ccc(F)cc3c2=O)cc1C	13%
65	O=C(Nc1nc2c(cc3c4c(cccc42)CC3)s1)c1ccc(Oc2ccccc2)cc1	-4%
66	CCCCCn1c(Sc2ccccc2)nc2c1c(=O)[nH]c(=O)n2C	2%
67	CC1=C(C(=O)OCC(C)C)C(c2ccccc2Cl)NC(=O)N1C (stereo unspecified)	11%
68	CCSCCOC(=O)C1=C(C)NC(=O)NC1c1ccc2c(c1)OCO2 (stereo unspecified)	7%
69	O=C(CSc1nnc(Cn2c(=O)sc3ccccc32)n1-c1ccccc1)N1CCCC1	0%
70	NC(=O)c1ccccc1NC(=O)CSCC(=O)Nc1ccccc1	-5%

The list goes on:
#	compound	Mtb growth
71	NC(=O)CSc1ccc2nnc(-c3ccccc3)n2n1	-10%
72	Cc1ccc(S(=O)(=O)NCc2nnnn2-c2ccc(F)c(F)c2)cc1	-5%
73	CC(=O)N1CCc2c(sc(NC(=O)c3cccc(C)c3)c2C(N)=O)C1	17µg/mL*
74	N#CC1=C(SCc2ccc(Cl)cc2)NC(=O)CC1c1cccs1 (stereo unspecified)	2%
75	COC(=O)c1ccc2nc(NC(=O)C(C)(C)C)sc2c1	76%
76	COc1ccc(-c2nnc3c4cc(OC)c(OC)cc4n(Cc4ccc(Cl)cc4)cc2-3)cc1	12%
77	COc1ccc(NC(C)=O)cc1NC(=O)c1ccc(N2CCCCS2(=O)=O)cc1	-7%
78	CCOC(=O)c1oc2ccccc2c1NC(=O)Cc1ccc(OCC)cc1	3%
79	CN(C)S(=O)(=O)c1ccc(C(=O)N2CCN=C2SCc2cccc([N+](=O)[O-])c2)cc1	-8%
80	O=C1CC(c2nc3ccccc3n2Cc2ccc(F)cc2)CN1Cc1ccccc1 (stereo unspecified)	8%

Overlap with the part before: three entries, followed by the next part.
#	compound	Mtb growth
78	CCOC(=O)c1oc2ccccc2c1NC(=O)Cc1ccc(OCC)cc1	3%
79	CN(C)S(=O)(=O)c1ccc(C(=O)N2CCN=C2SCc2cccc([N+](=O)[O-])c2)cc1	-8%
80	O=C1CC(c2nc3ccccc3n2Cc2ccc(F)cc2)CN1Cc1ccccc1 (stereo unspecified)	8%
81	N#CCOc1ccc2c(=O)c(Oc3ccccc3Cl)coc2c1	53%
82	O=C(CC1Nc2cccc3cccc(c23)NC1=O)Nc1ccc([N+](=O)[O-])cc1 (stereo unspecified)	u
83	Cc1ccc(-c2nnc(NC(=O)C(C)C)o2)c(C)c1	8.4µg/mL*
84	COc1cc2c(=O)c(C(=O)c3ccc(Cl)cc3)cn(Cc3ccc(C)cc3)c2cc1OC	-5%
85	O=C(CSc1ccc2nnc(-c3ccc(F)cc3)n2n1)Nc1ccccc1	-2%
86	CCc1ccc(C(=O)c2cn(CC(=O)Nc3ccc4c(c3)OCO4)c3ccc(F)cc3c2=O)cc1	58%
87	O=C(CN1N=NC2C(=O)N(c3ccc(F)c(Cl)c3)C(=O)C21)Nc1cccc(F)c1 (stereo unspecified)	-8%
88	COc1ccccc1C(=O)Nc1cc2c3c(c1)CCC(=O)N3CCC2	63%
89	COc1cccc(NC2=C(Cl)C(=O)N(c3cc(Cl)ccc3Cl)C2=O)c1	0%
90	COc1ccc(NC(=O)c2oc3ccccc3c2NC(=O)c2cc3ccccc3oc2=O)cc1	8%
91	COc1ccc(-c2nnc3c4cc(OC)ccc4n(Cc4ccccc4F)cc2-3)cc1	9.1µg/mL*
92	O=C(CSc1ccc2ccccc2n1)NCc1ccc2c(c1)OCO2	18%
93	CCS(=O)(=O)c1ccc(C(=O)Nc2ccc3sc(C)nc3c2)cc1	16%
94	O=C(O)CC(C(=O)O)n1c(O)c(C=C2N=c3ccccc3=N2)sc1=S (stereo unspecified)	-14%
95	Cc1ccc(C)c(NC(=O)CSc2nnc(-c3cccnc3)n2-n2cccc2)c1	0%
96	CCN(CC)CCNc1nc2c(c(=O)[nH]c(=O)n2C)n1CC(O)COc1ccc(OC)cc1 (stereo unspecified)	-8%
97	CCC(C)Sc1nc2c(c(=O)[nH]1)C(c1cccs1)C1=C(CCCC1=O)N2 (stereo unspecified)	4%
98	N#Cc1ccc(C(=O)Nc2nc(-c3cccs3)c(C(=O)C(F)(F)F)s2)cc1	33%
99	O=C(NNc1nc2c(F)cccc2s1)c1cc(=O)c2ccccc2o1	84%
100	COC(=O)C1CCN(C(c2ccccc2)c2sc3ncnn3c2O)CC1 (stereo unspecified)	10%
101	O=C(Nc1nnc(-c2ccco2)o1)C1=COCCO1	51µg/mL*
102	CN(Cc1ccccc1)S(=O)(=O)c1ccc(C(=O)Nc2ccccc2-c2nc3ccccc3s2)cc1	2%
103	O=[N+]([O-])c1cccc(-c2nc(=S)[nH][nH]2)c1	-2%
104	O=C(CCC1CCCCC1)Nc1nc2ccc(S(=O)(=O)N3CCCCC3)cc2s1	8%
105	CS(=O)(=O)NNc1ccc([N+](=O)[O-])cc1[N+](=O)[O-]	12µg/mL*
106	COc1ccc(-c2cc(C3CC3)nc3sc(C(N)=O)c(N)c23)cc1	89%
107	CC1=CC(=C2C(=O)NC(=S)NC2=O)C=C(C)N1CCc1ccccc1	-3%
108	Cc1ccc2cc(CCNC(=O)C(=O)c3c(C)[nH]c4ccccc34)c(=O)[nH]c2c1C	0%
109	Nc1ccc(-c2ccc(N)c([N+](=O)[O-])c2)cc1[N+](=O)[O-]	1%
110	Cn1c(=O)c2c(SCC(=O)Nc3ccc(F)cc3F)ccnc2n(C)c1=O	-1%
111	CCN1C(=O)c2cccc3c(S(=O)(=O)Nc4ccccc4OC)ccc1c23	-3%
112	O=C(O)CCCn1c(O)c(C=C2N=c3ccccc3=N2)sc1=S	-3%
113	O=C(CCC1CCCC1)Nc1c(C(=O)Nc2ccc3c(c2)OCCO3)oc2ccccc12	0%
114	Cc1ccc(-c2nnc3ccc(SCC(=O)Nc4ccccc4C(F)(F)F)nn23)cc1	0%

A portion of the library; rates above refer to the full screens.
